Screening results (PubChem)
Resorufin fluor – qHTS Assay for Spectroscopic Profiling in Resorufin Spectral Region; max dye-equivalent concentration, M; Compound fluorescence, resorufin region 547/598 nm, buffer; active compounds read high; 0.04% of 59,000 active; active = above 10 nM dye equivalent; inconclusive = 1 to 10 nM; inactive = 1 nM or less; a few of its hits are not listed in these tables; note: highest value over a series up to 38 µM
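Tris 100 mM pH 8.0; compound added, 15 min RT; CCD imager read, ex 547 nm/em 598 nm; signal normalized to resorufin standard curve (six concentrations per plate) as dye-equivalent concentration.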
A488 fluor – qHTS Assay for Spectroscopic Profiling in A488 Spectral Region | max dye equivalency, M | 0.1% of 59,000 active | compound autofluorescence, A488 spectral region, dye equivalency; active compounds read high; active = above 10 nM dye equivalent; inconclusive = 1 to 10 nM; inactive = 1 nM or less; about half of its hits are not listed in these tables;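 note: highest value over a series up to 38 µM; compound alone in buffer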
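Compounds pin-transferred into 100 mM Tris buffer, pH 8.0, incubated 15 min at room temperature, then imaged with 480 nm excitation/540 nm emission filters. Fluorescence converted to Alexa 488 dye-equivalent concentration via an on-plate six-point A488 standard curve.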
A647 autofl – qHTS Assay for Spectroscopic Profiling in A647 Spectral Region; Compound fluorescence, A647 channel (570/671 nm), Tris buffer; max dye-equivalent concentration, M; 59,000 tested, under 10 active; AID 592, 2007; active means above 1 µM dye equivalent; inconclusive means 0.1 to 1 µM; inactive means 0.1 µM or less;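 note: values scaled relative to a standard on each plate; highest value over a series up to 38 µM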
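Compounds pinned into 100 mM Tris pH 8.0, 15 min at room temperature, then read with 570 nm excitation/671 nm emission filters. Fluorescence normalized to an on-plate six-point Alexa 647 standard curve, giving dye-equivalent concentration per compound concentration.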
TSHR agonist – qHTS Assay for Agonists of the Thyroid Stimulating Hormone Receptor; Thyrotropin receptor (Homo sapiens), P16473; HEK293-CNG-TSHR cells (CNG channel as cAMP sensor), membrane potential dye, cAMP; Potency, µM (titrated, usually from 57.1 µM), without a hit: at the highest dose activation, most hits filed as activators; 0.48% of 73,000 active; active = well fitted activation curve of enough size with the parental cells flat; inconclusive = any curve in the parental cells; inactive = parental cells flat and receptor cells flat or falling; note: potency is the fitted concentration of half-maximal effect; % of control where 0% means no effect; weak receptor curves with flat parental cells got no call and are not listed
Target sequence (P16473 whole entry, looked up): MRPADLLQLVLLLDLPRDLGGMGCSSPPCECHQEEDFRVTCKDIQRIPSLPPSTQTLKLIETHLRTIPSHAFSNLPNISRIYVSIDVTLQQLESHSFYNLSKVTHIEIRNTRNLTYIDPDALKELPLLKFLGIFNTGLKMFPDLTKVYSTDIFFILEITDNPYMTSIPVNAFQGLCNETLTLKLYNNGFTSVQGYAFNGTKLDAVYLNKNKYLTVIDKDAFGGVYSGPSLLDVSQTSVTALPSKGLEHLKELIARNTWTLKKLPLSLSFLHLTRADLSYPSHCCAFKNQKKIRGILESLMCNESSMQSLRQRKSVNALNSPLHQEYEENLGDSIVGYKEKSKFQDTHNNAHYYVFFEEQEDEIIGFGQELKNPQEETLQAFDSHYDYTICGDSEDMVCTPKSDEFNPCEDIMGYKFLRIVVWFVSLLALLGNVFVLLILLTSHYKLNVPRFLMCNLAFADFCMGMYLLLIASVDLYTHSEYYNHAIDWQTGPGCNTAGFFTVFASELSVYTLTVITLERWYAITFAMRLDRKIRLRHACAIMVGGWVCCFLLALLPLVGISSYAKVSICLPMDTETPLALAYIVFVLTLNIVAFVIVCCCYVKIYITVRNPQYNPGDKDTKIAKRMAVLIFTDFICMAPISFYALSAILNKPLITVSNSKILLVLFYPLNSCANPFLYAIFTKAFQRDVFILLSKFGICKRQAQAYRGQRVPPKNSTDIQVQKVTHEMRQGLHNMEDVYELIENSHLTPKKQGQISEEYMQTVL
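HEK 293 cells stably expressing TSHR and a modified CNG channel, with CNG-only parental cells as counterscreen, were preloaded 60 min at room temperature with membrane potential dye containing 100 uM RO 20-1724. Compound exposure was 30 min, and depolarization was read as fluorescence at 590 nm.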
AID923 – qHTS Assay for Allosteric/Competitive Inhibitors of Caspase-1: Spectroscopic Profiling in AFC Spectral Region; 1.1% of 75,000 active; compound fluorescence, AFC spectral region (405/520 nm); almost no hit is shown here; Potency, µM (series often up to 57.5 µM), for the others: top-dose fluorescence increase, usual class: activators; AID 923, 2007; active = well fitted activation curve with a large enough effect; inconclusive = small, poorly fitted or top-dose-only effect;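 note: potency is the fitted concentration of half-maximal effect; 0% is about no effect; scaled to a free AFC standard on each plate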
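Baseline compound fluorescence (AFC region, 405 nm ex/520 nm em) taken from the intercept of kinetic reads with 50 nM caspase-1 and 5 uM Ac-WEHD-AFC; normalized to an on-plate AFC standard curve; compounds titrated up to 57 uM.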
Starred values were filed as active, the others as inactive; i = inactive; ? = inconclusive; . = no result given; [ ] = another dose, or the depositor's remark.

Each structure is followed by: AID923, A488 fluor, A647 autofl, TSHR agonist, Resorufin fluor
> Cc1nnc2c3cnn(-c4ccc(Cl)cc4)c3ncn12
→ 0.4%, i, 2.95e-08, 23.2%, i
> Cc1nc2ccc(NC(=O)N3CCN(c4ccccn4)CC3)cc2s1
→ 2.4%, i, 1e-09, 11.6%, i
> COc1cccc(C(=O)N2CCN(C(=O)c3cccc4ccccc34)CC2)c1OC
→ -1.8%, ., ., 11.0%, .
> CC1CCCCN1C(=O)Cc1ccc(F)cc1 (centres undefined)
→ 2.3%, i, 2.7e-09, 14.7%, i
> COC(=O)c1[nH]c2ccc(Br)cc2c1NC(=O)C(C)N1CCN(C2CCCCC2)CC1 (centres undefined)
→ 0.5%, i, 1e-09, ?, i
> Cc1cc(C)n(C(=O)CSc2nc3ccccc3o2)n1
→ ., i, 1e-09, ., i
> O=C(c1cccn2c(=O)c3cc(Br)ccc3nc12)N1CCN(c2ccccn2)CC1
→ 7.7%, i, 2.51e-08, 4.0%, i
> CCN1C(=O)CC(N2CCN(c3ccc(OC)cc3)CC2)C1=O (centres undefined)
→ ., i, 1e-09, ., i
> CCOC(=O)CCN1C(=O)[C@H]2[C@H]3[C@H](O)[C@H](O)C/C(=N/OCc4ccccc4)[C@H]3CC[C@@H]2C1=O
→ -1.2%[11.5 µM], ., ., 7.6%[11.4 µM], .
> COc1ccc(C2=NO[C@@H]3C(=O)N(c4ccc5c(c4)OCCO5)C(=O)[C@H]23)cc1OC
→ -0.4%, i, 2.3e-09, ., i
> O=C(COc1ncnc2ccccc12)NCCC1=CCCCC1
→ -1.7%, i, 1e-09, -2.2%, i
> CCN(CC)c1ccc(NC(=O)c2cc3ccccc3o2)c(C)c1
→ 0.7%, i, 2.56e-08, -4.8%, i
> O=C1CCCN1c1ccc(CNS(=O)(=O)c2ccc(F)cc2)cc1
→ -1.5%, i, 2.09e-08, -13.2%, i
> O=S(=O)(Nc1nc2ccccc2[nH]1)c1ccc(Cl)cc1
→ 1.3%, i, 5.77e-08, -1.2%, i
> COc1ccc(OC)c(S(=O)(=O)N2CCC(C(=O)NC(C)c3ccccc3)CC2)c1 (centres undefined)
→ -1.2%, i, 1e-09, -4.2%, i
> CCc1nnc(NC(=O)c2ccc(S(=O)(=O)N(CC(C)C)CC(C)C)cc2)o1
→ -1.2%, i, 1e-09, 8.3%, i
> COc1ccc(-c2nc(CSCC(=O)NCc3ccco3)c(C)o2)cc1
→ -1.0%, i, 1e-09, 4.1%[11.4 µM], i
> CN1C(=O)CC(N2CCN(C(=O)CN3CCCC3)CC2)C1=O (centres undefined)
→ -1.0%, i, 8.7e-09, -1.2%[11.4 µM], i
> Cc1nc(P(=O)(c2ccccc2)c2ccccc2)c(N2CCOCC2)o1
→ -2.2%, ., ., 11.0%, .
> CCCOc1ccc(N2CC(C(=O)Nc3ccc4c(c3)OCO4)CC2=O)cc1 (centres undefined)
→ 0.8%, ., ., -2.7%, .
> COc1ccc(S(=O)(=O)N(Cc2cc3ccc(OC)cc3[nH]c2=O)CC2COCCO2)cc1 (centres undefined)
→ -2.2%, i, 1.57e-08, -11.2%, i
> COc1ccc(C2=NO[C@@H]3C(=O)N(c4ccc(C)cc4C)C(=O)[C@H]23)cc1OC
→ 1.4%, i, 3.9e-09, 2.4%, i
> Cc1nn2c(=O)cc(CSc3nc4ccccc4[nH]3)nc2s1
→ -1.7%, ., ., 9.3%, .
> O=C(O)CC(c1ccc(Cl)cc1)N1C(=O)CCC1=O (centres undefined)
→ -0.7%, i, 9.3e-09, 5.1%[11.4 µM], i
> CCOC(=O)c1ccc(NC(=O)C2CCCN(S(=O)(=O)c3cnc[nH]3)C2)cc1 (centres undefined)
→ -2.0%, ., ., ?, .
> COc1cccc(-c2nc(NCc3cnc(C)cn3)c3ccccc3n2)c1
→ -1.3%, i, 1e-09, 9.4%, i
> Nc1nnc(SCCN2C(=O)c3ccccc3S2(=O)=O)s1
→ 0.3%, i, 1.58e-08, ?, i
> COc1ccccc1N1CCN(C(=O)c2cc3c(=O)n(C)c4ccccc4c3n2C)CC1
→ -0.2%, ., ., 5.6%, .
> CN(C)/C=N/c1ncnc2c1cnn2-c1ccc(C(F)(F)F)cn1
→ -2.5%, i, 3.1e-09, 4.0%[11.4 µM], i
> CCc1nc(NCCc2ccccn2)c2nnn(Cc3ccccc3F)c2n1
→ 2.3%, i, 5.63e-08, ?, i

The listing continues.
Each structure is followed by: AID923, A488 fluor, A647 autofl, TSHR agonist, Resorufin fluor
> Cc1ccc(C(=O)CSc2nnc(COc3cc(C)cc(C)c3)o2)cc1
→ 0.5%, i, 3.12e-08, ?, i
> CCN1CCN(C(=O)C2CCN(S(=O)(=O)c3cccc4cccnc34)CC2)CC1
→ -2.1%, ., ., -0.6%, .
> COc1cc(NC(=O)c2cc(-c3cccs3)on2)cc(OC)c1OC
→ 2.3%, i, 1e-09, 13.4%, i
> Cc1cccc(N2CCN(C(=O)Cn3sc4nc(C)cc(C)c4c3=O)CC2C)c1 (centres undefined)
→ -2.1%, ., ., -5.4%, .
> Cc1occc1C(=O)NC(C)C1CCCO1 (centres undefined)
→ 1.8%, i, 2.37e-08, -13.5%, i
> CN(C)S(=O)(=O)NC(c1ccccc1)c1ccccc1
→ -2.4%, i, 2.56e-08, 4.7%, i
> O=C(CSc1nnc(-c2cccs2)o1)c1cccs1
→ 2.5%, i, 5.2e-09, 1.3%, i
> C=CCNC(=O)c1ccccc1NC(=O)c1ccccc1
→ 0.8%, i, 4.26e-08, 12.3%, i
> O=C(O)c1ccc2c(c1)C(=O)N(Cc1ccccc1)C2=O
→ -0.4%, i, 1e-09, -3.4%, i
> Cc1[nH]nc2c1C1(CCC(c3ccccc3)CC1)C(C#N)=C(N)O2 (centres undefined)
→ 0.0%, i, 1.8e-09, -12.3%, i
> Cc1ccc(S(=O)(=O)c2n[nH]n3c2nc(=O)c2ccccc23)cc1
→ 7.5%, i, 2.28e-08, 25.4%, i
> CC1CCc2cc(F)cc3c(=O)c(C(=O)O)cn1c23 (centres undefined)
→ 0.3%, i, 5.09e-08, ., i
> CCOC(=O)CSc1nc2cc(OCC)ccc2cc1C#N
→ 17.9%, i, 6.1e-09, ?, i
> CC(C)N=C1SCC(C)(/C=N/O)S1 (centres undefined)
→ 1.6%, i, 4.7e-09, 24.7%, i
> Cc1nc2cc(NC(=O)N3c4ccccc4CC3C)ccc2o1 (centres undefined)
→ 0.1%, i, 2.84e-08, 1.2%, i
> COn1c(SC2CCCCC2)nc2ccccc2c1=O
→ ., i, 1.63e-08, ., i
> COc1cccc(NC(=O)COC(=O)c2cccnc2)c1
→ 0.5%, i, 1.98e-08, -3.6%, i
> CCS(=O)(=O)NCC(c1cccnc1)N1CCN(c2ccccc2F)CC1 (centres undefined)
→ 1.1%, i, 1e-09, 9.6%, i
> O=C(O)Cn1c(CC(=O)N2CCCC2)nc2ccccc21
→ 1.2%, i, 3.5e-09, -3.8%, i
> COc1ccc(CCNC(=O)C2CCCN(c3nn4c(=O)cc(C)nc4s3)C2)cc1OC (centres undefined)
→ -0.3%, i, 2.99e-08, -1.0%, i
> Cc1cc(O)c(C(C)C)cc1C1(c2cc(C(C)C)c(O)cc2C)OC(=O)c2ccccc21
→ -1.7%[11.5 µM], i, 1e-09, 8.0%[11.4 µM], i
> CCc1c(O)nc(SCC(=O)NCc2ccco2)[nH]c1=O
→ 0.1%, i, 1.73e-08, ?, i
> CCCCN1C[C@H](O)[C@@H](O)[C@H](O)[C@H]1CO
→ ., i, 1e-09, ., i
> Cc1cc(C)cc(N2C(=O)N(c3ccccc3C)C3CS(=O)(=O)CC32)c1 (centres undefined)
→ -0.3%, i, 2.12e-08, 6.6%, i
> CCCCC(=O)Nc1ccc(NC(=O)C(C)C)cn1
→ -2.0%, i, 2.55e-08, -5.7%, i
> CC(=O)[C@H]1CC[C@H]2[C@@H]3CCC4=CC(=O)CC[C@]4(C)[C@H]3[C@H](O)C[C@]12C
→ ., i, 1e-09, ., i
> COc1ccc(CC(=O)OCC(=O)Nc2ncc(Cl)cc2Cl)cc1
→ 0.0%, i, 1e-09, -2.0%, i
> COC(=O)CSc1nnc(CNc2ccc(OC)cc2)n1C
→ 2.1%, i, 4.16e-08, 0.3%, i
> CCN(CC)S(=O)(=O)c1ccc(S(=O)(=O)Nc2ccc(C(=O)N3CCCC3)cc2)cc1
→ -1.4%, i, 4.76e-08, 0.7%, i
> Nc1nnc(-c2ccc(F)cc2)s1
→ -0.6%, ., ., 2.0%, .

Following part.
Each structure is followed by: AID923, A488 fluor, A647 autofl, TSHR agonist, Resorufin fluor
> Cc1ccc(-n2nc(C(=O)N3CCN(C)CC3)c3c4ccccc4n(C)c3c2=O)cc1
→ -1.4%, i, 3.25e-08, 13.3%, i
> COc1ccc(OC)c(NC(=O)c2cc(-c3cc(Cl)ccc3O)n[nH]2)c1
→ -1.5%, i, 1.75e-08, 4.3%, i
> O=c1[nH]ccc2c(O)cccc12
→ -0.1%, i, 5.5e-09, -1.6%, i
> COc1cc2c(cc1OC)-c1cc(OCc3cccnc3)nc(=O)n1CC2
→ 2.6%, i, 1e-09, 12.1%, i
> O=C(CSc1ccc2nnc(-c3cccc(F)c3)n2n1)NCC1CCCO1 (centres undefined)
→ -0.6%, i, 1e-09, 13.0%[11.4 µM], i
> Cc1ccc(Cc2cncc(O)c2)cc1S(=O)(=O)O
→ 0.4%, i, 1.38e-08, -7.7%, i
> COc1ccc(C(=O)N2CC(=O)N(CCc3ccccc3)C(=O)C2)cc1OC
→ -0.4%, i, 1e-09, -2.4%, i
> O=C(NC1CCCCCC1)C1c2ccccc2C(=O)N1Cc1ccco1 (centres undefined)
→ 1.9%, i, 2.4e-09, ?, i
> O=C(CN(Cc1ccco1)C(=O)Cn1nnc(-c2cccs2)n1)NCc1ccccc1
→ 0.8%, i, 3.9e-09, ?, i
> CC(C)CCC(C(=O)O)C(C)CC(=O)NC1CCCCC1 (centres undefined)
→ 2.4%, i, 6.1e-09, 20.0%, i
> COC(=O)c1cnn(-c2ccc(C)c(C)c2)c1-n1cccc1
→ -1.7%, i, 2.59e-08, ?, i
> Cc1cc(C)n(CCn2nc(C)cc2C)n1
→ -1.2%, i, 1.1e-09, 1.6%, i
> O=C(O)CCCC(=O)Nc1cccc(-c2nc3ccccc3[nH]2)c1
→ 0.4%, i, 1.91e-08, 0.2%, i
> CC(C)(C)NC(=O)c1ccc(COCC(F)(F)F)o1
→ -2.5%, i, 1e-08, -8.0%, i
> Cc1nc2sccn2c1-c1csc(NCc2ccccc2)n1
→ 1.3%, i, 3e-09, 12.3%, i
> CCOC(=O)C1C(=O)CC(C)(O)C(C(=O)OCC)C1c1ccccc1OC (centres undefined)
→ 0.6%, i, 2.7e-09, 11.0%, i
> CNc1ncnc2ccc(-c3ccc4c(c3)OCO4)cc12
→ -0.2%, i, 9.2e-09, 11.1%, i
> O=C1C(=O)N(CCN2CCOCC2)C(c2ccccn2)/C1=C(/O)c1ccc(Cl)cc1 (centres undefined)
→ 9.8%, i, 2.55e-08, -7.1%, i
> Cc1cc(N2CCCCC2)nc(SCC(=O)c2ccccc2)n1
→ 2.1%, i, 1.6e-09, ?, i
> CCSc1nc(N2CCOCC2)c2c(c1C#N)CCCC2
→ -1.4%, i, 1e-09, ?, i

2 entries drawn at random from the list so far:
Each structure is followed by: AID923, A488 fluor, A647 autofl, TSHR agonist, Resorufin fluor
> CNc1ncnc2ccc(-c3ccc4c(c3)OCO4)cc12
→ -0.2%, i, 9.2e-09, 11.1%, i
> COc1ccc(OC)c(NC(=O)c2cc(-c3cc(Cl)ccc3O)n[nH]2)c1
→ -1.5%, i, 1.75e-08, 4.3%, i

Some of the compounds tested. The share of hits here may be higher or lower than overall.
